# GLA inh pH 4.5: alpha-galactosidase A (human) inhibition, pH 4.5 | 230,000 tested, under 10 active | P06280 | AID 1467 | purified enzyme, 4-MU-alpha-Gal fluorescence, pH 4.5 | activity change, negative = inhibition, % at 105 µM; inconclusive = small, poorly fitted or top-dose-only inhibition, or a rising curve; inactive = flat fitted curve, though single readings scatter; no compound was filed as active;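 note: 0% = full activity with enzyme and -100% = basal without enzyme; dose as in the result columns while the protocol names 77 µM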
# miR-21 FLuc: raises the signal of a miR-21 reporter. 340,000 tested, under 10 active. HeLa miR-21 FLuc reporter, luciferase, 48 h. Potency, µM (titrated, usually from 38.3 µM), without a hit: top-dose reporter change, positive = more light. AID 2288; active = well fitted rising curve with a large enough effect; inconclusive = small, poorly fitted or top-dose-only effect; inactive = no such curve, though single readings can be large or run the other way;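 note: % of control where 0% means no effect; miR-21 action dims this reporter so a rising signal means less miR-21 action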
#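 Using DMEM plus 10% FBS, HeLa miR-21-FLuc cells are incubated with test compounds (final up to about 40uM) for 48 hours; firefly luciferase signal is then imaged following reagent-mediated lysis.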
# Rango dissoc inh: inhibition of RanGTP-driven Rango-importin beta dissociation; O95149+P62826; Biochemical FRET Rango-importin beta, RanGTP-induced dissociation; Potency, µM (top dose mostly 46.1 µM), inactives show at the highest dose activity change, negative = inhibition; actives 0.071% (n = 340,000); active means falling FRET ratio curve, often poorly fitted, with flat reads before Ran was added; inconclusive means other falling curves, or compound fluorescence or quenching; inactive means flat or rising ratio curve;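 note: potency is the fitted concentration of half-maximal effect; % of control where 0% means no effect; nearly all actives have a fitted effect of over 45% in size; -100% = wells without RanGTP and RCC1; the record marks most hits as doubtful in a second field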
#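 Two FRET readings bracket the reaction: one 5 min after compound meets Rango–importin beta, another 45 min after RanGTP-RCC1 (0.6 uM Ran, 0.2 uM RCC1, 2 mM GTP) is added. Only the second defines inhibition.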
# Rango-impB inh: inhibitors of Rango-importin beta complex formation; Q14974; Rango CFP/YFP FRET sensor + importin beta, 45 min; Potency, µM (titrated, usually from 92.2 µM), for inactives: at the highest dose inhibition of complex formation; actives 0.031% (n = 340,000); AID 540263; active = rising FRET ratio curve, often small or poorly fitted; inconclusive = mostly compound fluorescence or quenching in the first reads; inactive = flat curves in all reads;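 note: potency is the fitted concentration of half-maximal effect; 0% = DMSO wells and 100% = buffer wells lacking importin beta; nearly all actives have a fitted effect of over 15% in size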
# Target sequence (Q14974 whole entry, looked up): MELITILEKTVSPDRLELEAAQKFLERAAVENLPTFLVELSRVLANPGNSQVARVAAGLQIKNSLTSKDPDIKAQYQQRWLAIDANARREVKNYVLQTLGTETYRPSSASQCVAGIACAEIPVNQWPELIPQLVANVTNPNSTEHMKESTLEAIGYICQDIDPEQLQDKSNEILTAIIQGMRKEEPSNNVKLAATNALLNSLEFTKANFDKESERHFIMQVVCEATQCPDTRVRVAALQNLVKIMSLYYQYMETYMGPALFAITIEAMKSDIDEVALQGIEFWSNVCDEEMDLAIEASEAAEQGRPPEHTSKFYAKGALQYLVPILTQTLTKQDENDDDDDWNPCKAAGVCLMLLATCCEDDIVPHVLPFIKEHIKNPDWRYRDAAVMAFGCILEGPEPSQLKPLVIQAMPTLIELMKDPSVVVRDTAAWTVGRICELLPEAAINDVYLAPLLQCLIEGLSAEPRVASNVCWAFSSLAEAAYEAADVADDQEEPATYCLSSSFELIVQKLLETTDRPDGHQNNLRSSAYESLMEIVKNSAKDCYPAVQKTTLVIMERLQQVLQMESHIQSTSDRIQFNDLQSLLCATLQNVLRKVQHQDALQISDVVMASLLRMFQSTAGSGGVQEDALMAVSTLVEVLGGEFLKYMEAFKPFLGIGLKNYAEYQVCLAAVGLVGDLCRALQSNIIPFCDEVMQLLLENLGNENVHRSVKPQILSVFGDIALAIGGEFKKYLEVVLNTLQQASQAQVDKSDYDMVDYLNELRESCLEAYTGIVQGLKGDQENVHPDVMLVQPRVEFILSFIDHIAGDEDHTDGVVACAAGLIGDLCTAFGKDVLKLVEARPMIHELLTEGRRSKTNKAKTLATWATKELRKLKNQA
#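 FRET biosensor (snurportin 1 IBB flanked by EYFP and cerulean), 50 nM, with compound 5 min, then 0.125 microM importin beta in PBS, 1 mM DTT, 0.02% Tween-20, 0.1% BSA. CFP/YFP ratio read after 45 min at room temperature; pre-read flags interference.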
# * marks the source's active call; other numbers are inactive results; ? = inconclusive; . = not tested or not shown; & = joins results of further samples.
GLA inh pH 4.5	miR-21 FLuc	Rango dissoc inh	Rango-impB inh	Compound
-6	-2%	5%	2.5%	Cc1cc(C)c(C(N)=O)c(NCCc2ccccc2)n1
.	-7%	-9%	0.1%	COc1ccc(CNC(=O)COc2cccnc2[N+](=O)[O-])cc1OC
-17	-2%	2%	?	CC(C)(CNS(C)(=O)=O)SCc1ccc(Cl)cc1
.	-14%	13%	2.1%	Cc1ccccc1Nc1nnc(SCC(=O)c2ccc(O)cc2O)s1
2	-43%	12%	-1.5%	COC(=O)c1ccc(NC(=O)CSCc2ccccc2)cc1
.	2%	?	-0.5%	O=C1/C(=C\c2ccc(Br)cc2)SC(=S)N1NS(=O)(=O)c1ccccc1
3	-8%	25%	6.3%	COc1cc2nc(SCC(=O)c3ccc(Br)cc3)n3nc(C)nc3c2cc1OC
-8	-20%	-16%	1.1%	Cc1c(Cl)c(-c2n[nH]c(=S)n2-c2ccc(F)cc2)nn1C
-10	-4%	2%	-2.4%	CCOC(=O)c1[nH]c2ccccc2c1NC(=O)CCN1CCN(C(=O)OCC)CC1
-8	-4%	?	?	CCN(CC)C1=N/C(=C\c2ccco2)C(=O)N1c1ccccc1
-3	-9%	37%	-3.9%	CCOc1ccc(CCNC(=O)c2nnc(Cc3ccc(F)cc3)o2)cc1OCC
3	-7%	40%	-2.4%	CCOc1cc(C2C(C(=O)OCC(C)C)=C(C)N=C3SCCC(=O)N32)ccc1OC(C)=O (stereo not given)
.	.	?	-1.0%	C[C@H](CO)N1C[C@H](C)[C@@H](CN(C)S(=O)(=O)c2cccs2)Oc2c(NC(=O)c3ccncc3)cccc2C1=O
.	-5%	-13%	3.8%	CCOc1ccccc1CNC(=O)C1Cc2cc(S(=O)(=O)N3CCCCC3)ccc2N1C(C)=O (stereo not given)
-4	-1%	-2%	2.7%	Cc1ccc(N(CC(=O)NC2CCCC2)C(=O)CCCC(=O)Nc2ccccn2)cc1C
-19	16%	6%	-0.9%	CCn1c(O)c(N=NC(=S)NCC2CCCO2)c2ccccc21 (stereo not given)
8	-4%	-6%	4.6%	N#Cc1c(-c2ccccc2)cc(C2CC2)nc1SCC(=O)O
3	-3%	6%	0.4%	ONC(=Nc1ccccc1Cl)c1ccccc1Cl
.	-4%	19%	-6.3%	Cc1ccc(CNC(=O)CCNC(=O)N2CCn3c2nc2ccccc23)cc1
-13	23%	15%	0.8%	c1ccc2c(Nc3ccc4c(c3)OCCO4)c3c(nc2c1)CCC3
.	.	9%	-1.5%	CC1CCCCC12NC(=O)N(CC(=O)Nc1sccc1C(N)=O)C2=O (stereo not given)
4	-8%	-4%	-2.3%	CC(=O)Oc1ccc(C(=O)Nc2cccc(C(=O)NC(C)(C)C)c2)cc1
.	0%	0%	-3.6%	CC(C)=CCCC(C)CN1CCC(n2nccc2NC(=O)C2CCCC2)CC1 (stereo not given)
-2	-3%	2%	-1.1%	Cc1ccccc1N1OC2C(=O)N(c3ccc(F)cc3)C(=O)C2C1c1ccccn1 (stereo not given)
.	.	-16%	-2.0%	CCN(CC)CCCn1c2c(c(SCC(=O)Nc3nccs3)nc1=O)CCC2
9	-38%	16%	-0.2%	O=C(COc1ccccc1Cl)NC(=S)N1CCc2ccccc21
3	?	5%	1.5%	CC1CC2=C(CC1/C=N/NC(N)=S)C(C)(C)CCC2 (stereo not given)
-4	-2%	0%	4.5%	O=C(c1ccc(Cl)cc1)[C@@H]1[C@@H]2C(=O)N(c3ccc(Cl)cc3)C(=O)[C@@H]2C2c3ccccc3C=NN21 (stereo not given in full)
7	2%	4%	?	CCc1nnc(SCC(=O)NC2CCCCC2)nc1CC
.	13%	12%	-2.2%	COc1ccc(Oc2nc3c(c(=O)n(C)c(=O)n3C)n2C)cc1
-2	9%	0%	0.9%	O=C(N/N=C/c1ccc2ncccc2c1)c1ccco1
-3	-26%	-6%	4.1%	O=C(Nc1ccc(Cl)c(Cl)c1)N1CCSCC1
-11	-15%	-1%	2.2%	C/C(CC(=O)Nc1cccc(Cl)c1C)=N\NC(=O)Cc1csc(N)n1
.	4%	3%	-0.4%	CCc1ccc(CN(C)C(=O)c2cc(COc3ccc(-n4cncn4)cc3)on2)cc1
-4	-1%	-10%	-0.2%	Cc1ccc(C(c2sc3nc(C)nn3c2O)N2CCN(c3ccccc3)CC2)cc1 (stereo not given)
.	5%	6%	-1.2%	COc1ccc(CNC(=O)N2CCN(c3ccc(F)cc3)CC2)cc1
6	-8%	-25%	?	CC(NC(=O)Cc1ccccc1)c1ccc(F)cc1 (stereo not given)
-1	0%	2%	-0.1%	CCOC(=O)C1CCN(CC(O)COCc2cccs2)CC1 (stereo not given)
.	0%	-5%	-3.9%	CC(C)(C)NC(=O)CSc1nnc(NC(=O)CCc2ccccc2)s1
-6	-5%	22%	0.2%	CC(=O)Nc1ccc2c(c1)c1ccccc1n2C(C)=O
-9	-37%	-5%	-1.6%	O=C(NCc1ccccn1)Nc1ccc2c(c1)OCO2
5	-3%	6%	2.0%	COc1ccc(/C=N/NC(=O)Cn2cnc3ccccc3c2=O)cc1
.	-3%	2%	-0.1%	CN(C)CCCNc1ccc(-c2n[nH]c(=O)c3ccccc23)cc1[N+](=O)[O-]
.	.	-8%	-3.2%	COc1ccc(-c2nc(SC(C)C(=O)NC3CC3)n[nH]2)cc1 (stereo not given)
1	12%	1%	3.5%	CCc1cccc(CC)c1NC(=O)COC(=O)c1cccc(S(=O)(=O)N2CCc3ccccc3C2)c1
-8	-20%	11%	-2.0%	Cc1cc2ccccn2c1C(=O)c1ccncc1
-1	2%	-16%	-3.8%	O=C1OC(Nc2cc(Br)cc3cccnc23)c2ccccc21 (stereo not given)
.	-67%	37%	2.7%	Cc1cccc(NC(=O)CCCc2ccccc2)c1
9	-3%	12%	1.1%	Cc1ccc(Nc2nc(CSc3nnc(-c4ccncc4)n3C)cs2)cc1
11	-1%	8%	-5.7%	COc1ccc(CNS(=O)(=O)c2ccc(S(=O)(=O)N3CCCCC3)cc2)cc1
.	0%&-7%	13%	0.6%	Cc1cc2c(cc1S(=O)(=O)CCC(=O)NCCc1ccccc1)OCC(=O)N2
.	0%	6%	-0.2%	Cn1c(CSCc2ccc(F)cc2)n[nH]c1=S
-15	-1%	2%	0.5%	COC(=O)CN(c1nc(C)c(Br)c(OC)n1)S(=O)(=O)c1ccc(C)cc1
2	-3%	-8%	?	OC1CCCN(CC(O)COC(c2ccccc2)c2ccccc2)C1 (stereo not given)
.	.	-5%	1.5%	COc1cc(C)ccc1OCC(=O)NCC1CCCO1 (stereo not given)
.	0%	-16%	-1.6%	O=C(Cn1nc(C(F)F)cc1C1CC1)N1CCCC1
-20	-1%	-2%	-0.9%	COc1ccc(NC(=O)c2cc(S(=O)(=O)N3CCS(=O)(=O)CC3)ccc2Cl)cc1
-3	?	0%	8.0%	COC(=O)c1ccc2nc(NC(=O)C(C)(C)C)sc2c1
-2	0%	-3%	0.9%	COc1ccc2[nH]c(C(=O)Nc3cccc(C)n3)cc2c1
-9	1%	-5%	-2.3%	O=C(NNC(=O)c1cc2cc(OC(F)(F)F)ccc2[nH]1)c1cccc(C(F)(F)F)c1

# The listing continues.
GLA inh pH 4.5	miR-21 FLuc	Rango dissoc inh	Rango-impB inh	Compound
.	.	-16%	-2.7%	O=C(CSc1ncnc2ccccc12)NC1CCS(=O)(=O)C1 (stereo not given)
-10	-3%	-9%	0.0%	COC(=O)c1ccccc1NC(=O)c1sc(=S)n(C)c1N
2	-10%	?	0.1%	O=C(O)c1cc(-c2ccccc2)n(-c2ccc(Cl)cc2)n1
-9	-14%	28%	?	Cc1ccc(C(=O)OCc2nc(N)nc(Nc3ccccc3C)n2)cc1
9	3%	14%	-4.1%	N#Cc1cccnc1N1CCC(C(N)=O)CC1
-9	-73%	1%	0.4%	CN(C(=O)c1cccc(COc2ccc(Cl)cc2Cl)c1)c1ccccc1
.	8%	-14%	-4.4%	CCOC(=O)N1CCN(C(=O)c2oc3ccc(S(=O)(=O)N(CC)CC)cc3c2C)CC1
-2	-22%	?	?	CCC(=O)c1ccc(/C=C/c2nc3ccccc3n2C)o1
0	-11%	0%	0.2%	Cn1c(=O)c2c(nc(CN3CCN(C(=O)c4ccco4)CC3)n2CCc2ccccc2)n(C)c1=O
-3	-9%	-9%	0.0%	COc1cccc(NC(=S)N(CCCN2CCOCC2)C(C)c2cc3cccc(OC)c3o2)c1 (stereo not given)
3	27%	22%	-1.0%	Cc1cc(O)cc(O)c1-c1onc(C(F)(F)F)c1-c1cscn1
.	-6%	19%	1.9%	COc1cccc(OC)c1C(=O)Nc1ccc(N2CCCC2)cc1
.	.	0%	1.6%	COC(=O)c1ccc(C)c(NC(=O)CSc2nnc3ccccn23)c1
-2	4%	-10%	4.3%	CN(c1ccccc1)S(=O)(=O)c1cc(C(=O)c2nccn2C)ccc1Cl
-1	-6%	2%	0.4%	COC(=O)c1cccc(NC(=O)CN2CCN(c3ccc(OC)cc3)CC2)c1
.	-59%	11%	-1.0%	O=C(c1cc(COc2c(F)cccc2F)on1)N1C[C@H]2CC[C@H]1C2
-8	-3%	13%	0.6%	O=C(CN(C1CCCCC1)S(=O)(=O)c1ccc(Cl)cc1)N1CCOCC1
.	.	3%	1.1%	CC(=O)Nc1ccc(S(=O)(=O)N(C)CC(=O)NNC(=O)Cc2nc3ccccc3n2C)cc1
-3	-37%	-16%	-4.9%	Cc1ccc(-c2nc3cc(NC(=O)C(C)C)ccc3o2)cc1C
-6	0%	-16%	0.2%	Cc1cccc2cc(CN(Cc3ccco3)C(=O)NC3CCCCC3)c(=O)[nH]c12
4	-36%	-9%	5.3%	CCc1ccc(NC(=S)Nc2cccc(OC)c2)cc1
-2	-12%	4%	0.7%	O=C(OCn1nnc2ccccc2c1=O)c1ccc(Br)o1
.	-2%	-6%	?	COc1ccc(CN2CCNC(=O)C2CC(=O)NCc2cc(C)n(C)n2)c(F)c1 (stereo not given)
-4	-29%	0%	1.4%	COc1ccc(-c2nnc(SCc3c(C)noc3C)o2)cc1
5	-2%	-9%	-1.5%	C#CC1(NC(=O)NC(C)C)CCCCC1
-2	-7%	0%	2.8%	S=c1[nH]nc(COc2ccccc2)n1/N=C/c1cccnc1
3	-47%	-2%	1.4%	O=C(Nc1ccc2nccnc2c1)c1cnccn1
-12	23%	13%	1.0%	Cc1ccc(C(NC(=O)C2CCCCC2)c2c(O)ccc3ccccc23)cc1 (stereo not given)
.	1%&-4%	1%	3.0%	CCOC(=O)C1CCCN(S(=O)(=O)c2cc(Br)cc3c2N(C(=O)CC)CC3)C1 (stereo not given)
1	?	2%	0.1%	COCCCNC(=O)CCSc1ccc(C)cc1
-5	-42%	-2%	1.5%	Nc1ccc(-c2ccc(N)c([N+](=O)[O-])c2)cc1[N+](=O)[O-]
-1	-15%&-15%	8%	-4.6%	Cc1ccn2c(Nc3ccc4c(c3)OCO4)c(-c3ccc(O)cc3)nc2c1

# Reprinted at random: 2 records from the list, in no set order.
GLA inh pH 4.5	miR-21 FLuc	Rango dissoc inh	Rango-impB inh	Compound
-3	-9%	-9%	0.0%	COc1cccc(NC(=S)N(CCCN2CCOCC2)C(C)c2cc3cccc(OC)c3o2)c1 (stereo not given)
4	-36%	-9%	5.3%	CCc1ccc(NC(=S)Nc2cccc(OC)c2)cc1

# Another view of some results above:
# The line under a structure holds: GLA inh pH 4.5	miR-21 FLuc	Rango dissoc inh	Rango-impB inh
O=C(CSc1ncnc2ccccc12)NC1CCS(=O)(=O)C1 (stereo not given)
  .	.	-16%	-2.7%
COC(=O)c1ccccc1NC(=O)c1sc(=S)n(C)c1N
  -10	-3%	-9%	0.0%
O=C(O)c1cc(-c2ccccc2)n(-c2ccc(Cl)cc2)n1
  2	-10%	?	0.1%
Cc1ccc(C(=O)OCc2nc(N)nc(Nc3ccccc3C)n2)cc1
  -9	-14%	28%	?
N#Cc1cccnc1N1CCC(C(N)=O)CC1
  9	3%	14%	-4.1%

# Bioassay records deposited in PubChem BioAssay by National Center for Advancing Translational Sciences (NCATS).

# The list is partial. The share of hits here may be higher or lower than overall.
